Marburg entry inh – inhibitors of Marburg virus binding or cell entry | 300,000 compounds, 1.8% hits | AID 540276 | Potency, µM (series often up to 37.8 µM), without a hit: at the highest dose activity change, negative = inhibition, usual class: inhibitors | Marburg virus pseudotyped entry inhibition, cell reporter; control for the full effect not named in the record; about a third of the inactives were read at about 46 µM; active = well fitted inhibition curve with a large enough effect; inconclusive = small, poorly fitted or top-dose-only effect, or effect the other way; inactive = flat fitted curve, though single readings scatter; tested in HEK293 cells; about a fifth of its hits are not listed in these tables; further: on the % scale 0 is the no-effect control and ±100 the full control effect; luciferase read-out
LASV entry inh – blocks Lassa virus binding to or entry into cells; Lassa virus pseudotype entry inhibition, cell reporter; control for the full effect not named in the record; Potency, µM (highest dose often 37.9 µM), inactives show at the top dose activity change, negative = inhibition, usual class: inhibitors; 300,000 compounds, 1.2% hits; AID 540256; active means well fitted inhibition curve with a large enough effect; inconclusive means small, poorly fitted or top-dose-only effect, or effect the other way; inactive means flat fitted curve, though single readings scatter; tested in HEK293 cells; further: on the % scale 0 is the no-effect control and ±100 the full control effect; nearly all actives have a fitted effect of over 50% in size; luciferase read-out
Cruzain inh Det – cruzain (T. cruzi) inhibition with detergent; P25779; purified cruzain, Z-FR-AMC fluorescence, 0.01% Triton; Potency, µM, without a hit: max response, negative = inhibition, hits mostly inhibitors; 200,000 compounds, 0.43% hits; AID 1478; active means well fitted curve in the direction sought with a large enough effect; inconclusive means small, poorly fitted or top-dose-only effect, or another doubt; inactive means no such curve, though single readings can be large; an effect the other way counts as inactive or inconclusive;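 further: plate controls were neutral wells for no effect and buffer without enzyme for full effect; nearly all actives have a fitted effect of over 40% in size; top concentration of the series not given in the record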
Target sequence (P25779 123-467 limits assumed): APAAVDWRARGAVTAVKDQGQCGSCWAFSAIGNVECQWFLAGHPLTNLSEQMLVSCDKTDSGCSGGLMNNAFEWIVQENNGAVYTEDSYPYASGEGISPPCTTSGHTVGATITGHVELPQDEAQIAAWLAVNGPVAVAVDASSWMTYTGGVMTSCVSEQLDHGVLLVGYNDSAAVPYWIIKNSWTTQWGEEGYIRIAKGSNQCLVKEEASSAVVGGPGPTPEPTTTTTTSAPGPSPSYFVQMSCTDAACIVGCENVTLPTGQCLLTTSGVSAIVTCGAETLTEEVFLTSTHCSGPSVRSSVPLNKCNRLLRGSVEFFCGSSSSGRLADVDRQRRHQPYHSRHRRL
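Z-FR-AMC hydrolysis (2 uM substrate) by cruzain (1.5 nM) monitored kinetically at ex 360/em 450 nm after 15 min room-temperature compound exposure; 0.01% Triton X-100, pH 5.5, 5 mM DTT.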
Cruzain inh noDet – blocks cruzain activity in detergent-free assay; purified cruzain, Z-FR-AMC fluorescence, no detergent; P25779; Potency, µM, for the others: max response, negative = inhibition, usual class: inhibitors; 200,000 compounds, 2.3% hits; active means well fitted curve in the direction sought with a large enough effect; inconclusive means small, poorly fitted or top-dose-only effect, or another doubt; inactive means no such curve, though single readings can be large; an effect the other way counts as inactive or inconclusive;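 further: plate controls were enzyme without inhibitor for no effect and buffer without enzyme for full effect; nearly all actives have a fitted effect of over 40% in size; top concentration of the series not given in the record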
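Purified cruzain at 1.5 nM, pre-incubated 15 min with compound at room temperature in 100 mM sodium acetate pH 5.5, 5 mM DTT, 0.00005% Triton X-100. Reaction started with 2 uM Z-FR-AMC; AMC fluorescence increase over 60 s gives rate.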
RE007 growth inh – less growth of the S. pombe RE007 Vpr strain. S. pombe RE007 Vpr strain, BacTiter-Glo ATP luminescence, 24 h; control for the full effect not named in the record. 360,000 compounds, 0.21% hits. Potency, µM (titrated, usually from 92.2 µM), for the others: at the top dose activity change, negative = less growth; active = well fitted falling curve with a large enough effect; inconclusive = small, poorly fitted or top-dose-only effect; inactive = no such curve, though single readings can be large or run the other way;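 further: on the % scale 0 is the no-effect control and ±100 the full control effect; nearly all actives have a fitted effect of over 50% in size; the assay follows cell death caused by Vpr and the record does not say whether a fall means rescue or toxicity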
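Fission yeast RE007 carrying one integrated HIV-1 vpr copy, seeded at OD 0.01 in PMG+AL medium with 23 nL pinned compound. Grown 24 h at 30 degrees; viability read by BacTiter-Glo luminescence after 5 min.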
SARS PLpro yeast – blocks SARS-CoV papain-like protease in a yeast assay; S. cerevisiae expressing SARS-CoV PLpro, growth rescue; control for the full effect not named in the record; Potency, µM (highest dose often 32.9 µM), inactives show at the top dose activity, positive = growth rescue; 330,000 compounds, 0.19% hits; AID 485353; further: 0% is about no effect; nearly all actives have a fitted effect of over 55% in size; growth read by luminescence after 48 h
NS1 inh – influenza NS1 inhibition | S. cerevisiae slowed by influenza A NS1, growth recovery by OD600 | Potency, µM (series often up to 46.1 µM), for the others: top-dose activity, positive = more growth | 270,000 compounds, 0.4% hits; further: actives are rising curves; nearly all actives have a fitted effect of over 50% in size
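In this qHTS, NS1 from influenza A is expressed in budding yeast, where it slows growth. Cells are switched from glucose to 2% galactose medium (pH 6.0, -URA), treated with compound, and growth recovery is read at OD600.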
2A StopGo – lowers the luciferase signal of an FMDV 2A StopGo reporter | human cells with a luciferase reporter of 2A StopGo recoding; control for the full effect not named in the record | Potency, µM (series often up to 57.9 µM), for inactives: at the top dose signal change, negative = less light | 410,000 compounds, 1.2% hits | AID 1159524; active = well fitted falling curve with a large enough effect; inconclusive = small, poorly fitted or top-dose-only effect; inactive = no such curve, though single readings can be large or run the other way; tested in HEK293T cells; further: on the % scale 0 is the no-effect control and ±100 the full control effect; nearly all actives have a fitted effect of over 45% in size; luciferase light after 4 h
The depositor's hits bear a star; ? = inconclusive; . = not tested or not shown; & = joins results of further samples; [ ] = another dose, or the depositor's remark. Unless noted, the call rests on the fitted dose curve; in most records, active means well fitted rising curve with a large enough effect; inconclusive means small, poorly fitted or top-dose-only effect; inactive means no such curve, though single readings can be large or run the other way. Potency means the concentration at half of the fitted maximal effect.

SMILES	Marburg entry inh	LASV entry inh	Cruzain inh Det	Cruzain inh noDet	RE007 growth inh	SARS PLpro yeast	NS1 inh	2A StopGo
Cc1ccc(C(=O)N/C(=C\c2ccc(-c3ccccc3[N+](=O)[O-])o2)C(=O)NCCCN2CCOCC2)cc1	?	?	.	.	-12%	-4%	-9%	-13%
CCNC(=O)c1ccccc1-c1nc(-c2ccccc2Cl)no1	18%	19%	2.6%	6%	-2%	?	-12%	3%
N#CCC(=O)NCCCOC(=O)Nc1ccc(Cl)c(Cl)c1	11%	16%	-9.5%	3%	-3%	-2%	-1%	.
Cn1nnnc1SCc1cn2cccnc2n1	21%	18%	-7.7%	-21%	-4%	7%	2%	-11%
CC1CCCN(C(=O)CSCC(=O)N=c2sc3ccccc3n2C)C1 (configuration not stated)	6%[46.1 µM]	12%	1.0%	5%	-5%	-2%	-32%	-6%
Cc1ccc(C(=O)NCC(=O)Nc2ccccc2C(F)(F)F)cc1	?	-2%	2.2%	-17%	13%	16%	5%	4%
Cc1cc(Oc2ccccc2F)nc(NCc2ccccc2)n1	?	1%	-6.1%	-2%	-24%	12%	-10%	?
CCc1ccc(NC(=O)CSc2nnc(-c3cccs3)n2CC)cc1	4%	-3%	-1.0%	3%	12%	0%	-54%	?
CCC(=O)N1CCc2cc(S(=O)(=O)NC(Cc3ccccc3)C(=O)Nc3ccc(C)cc3)ccc21 (configuration not stated)	5%[46.1 µM]	17%[46.1 µM]	-1.7%	-4%	.	.	.	4%
O=C(O)C(Cc1ccccc1)Nc1ccc([N+](=O)[O-])cc1[N+](=O)[O-] (configuration not stated)	4%[46.1 µM]	3%	.	.	7%	1%	-20%	6%
COc1cccc(NC(=O)C(=O)N/N=C(\C)CC(=O)Nc2ccc(NC(C)=O)cc2)c1	.	.	.	.	15%	-6%	-4%	71%[activator]
Cc1ccc(NC(=O)CSc2nnc(-c3ccccn3)n2N)c(Br)c1	?	23%[46.1 µM]	.	.	-2%	1%	3%	-10%
COc1ccc(C(=O)NCCCN2CCOCC2)cc1Br	.	.	.	.	-13%	3%	2%	-24%
Nc1nnnn1/N=C/c1ccc(Cl)cc1	29%	-14%	.	.	-23%	1%	2%	23%
Cc1cc(C)nc(Nc2ccccc2F)n1	6%	1%	.	.	-2%	3%	0%	11%
CSc1ccc(/C=N\NC(=O)COc2ccc(Cl)cc2Br)cc1	-19%	?	-3.0%	?	-23%	-6%	1%	29%
CC(=O)NCCC(=O)N1CCCC(N2CCN(c3cccc(Cl)c3)CC2)C1 (configuration not stated)	.	.	.	.	-6%	1%	5%	26%
COc1cccc(C(=O)O/N=C(\N)CS(=O)(=O)c2ccccc2)c1	.	.	.	.	3%	7%	4%	21%
O=C(Nc1ccc(CN2CCCCC2)cc1)c1cccc(Br)c1	?	?	-0.7%	-1%	2%	-1%	-3%	17%
CCN(CC)C(=O)CSc1nnc(NC(=O)CCc2ccccc2)s1	-1%	-18%	1.6%	-1%	14%	5%	-3%	3%
COc1ccc(Cl)cc1NC(=O)c1cnccn1	.	.	.	.	1%	-3%	-36%	10%
CCc1nc(SCC(=O)NNC(=O)c2ccc(C)cc2)c2ccccc2n1	1%[46.1 µM]	4%	.	.	-5%	-2%	7%	-22%
CCOC(=O)C1CCCN(C(=O)C2CC(=O)N(c3ccc(C)cc3)C2)C1 (configuration not stated)	4%	7%	2.3%	9%	10%	-2%	5%	1%
COc1ccc(/C=C/C(=O)OC(C)CN2CCCCC2)cc1 (configuration not stated)	.	.	.	.	0%	-4%	-4%	-22%
Nc1nnc(SCC(=O)OCC(=O)Nc2ccc(Br)cc2)s1	7%	-1%	-5.3%	10%	16%	15%	-3%	-5%
Next structures
SMILES	Marburg entry inh	LASV entry inh	Cruzain inh Det	Cruzain inh noDet	RE007 growth inh	SARS PLpro yeast	NS1 inh	2A StopGo
COc1cc([N+](=O)[O-])cc(/C=N/NC(=O)c2cc(C)nc3ccccc23)c1O	.	.	.	.	16%	0%	-6%	-4%
O=C(NC1CCCCCC1)c1ccc(N2CCCC2=O)cc1	-3%	-2%	-1.0%	1%	-21%	3%	1%	1%
COc1ccc(OCc2nc(C#N)c(NCc3ccccc3Cl)o2)cc1	5%[46.1 µM]	-24%[46.1 µM]	0.8%	9%	.	.	.	-16%
O=C(NCCc1ccccc1)c1nn(-c2ccc(F)cc2)nc1CO	10%[46.1 µM]	-3%[46.1 µM]	1.8%	-7%	.	.	.	-22%
CC(C)CC(=O)Nc1ccc(C(=O)NNC(=O)C(c2ccccc2)c2ccccc2)cc1	-13%	0%	5.8%	25µM*	8%	3%	-6%	0%
CCCc1ccc(OCc2nc(-c3ccc(NC(=O)c4cccs4)cc3)no2)cc1	?	10%	0.6%	?	-19%	-8%	-4%	46%[activator]
Cc1c(NS(=O)(=O)c2ccc3nc(COc4ccccc4Cl)[nH]c3c2)c(=O)n(-c2ccccc2)n1C	?	2%[46.1 µM]	.	.	4%	0%	.	10%
COc1ccc(NC(=O)c2oc3ccc(S(=O)(=O)N4CCOCC4)cc3c2C)cc1	-30%&-30%	-29%	0.5%	4%	1%	2%	.	?
Cc1ccccc1C(=O)Oc1ccc(Br)cc1C(=S)N1CCCC1	-4%	-1%	-3.1%	2%	12%	-9%	29%	9%
CCOc1ccc(NC(=O)C/C(C)=N/NC(=O)c2cnccn2)cc1	.	.	.	.	0%	-8%	20%	-16%
COc1cc(C(=O)NC(C)c2ccc3ccccc3c2)cc(Cl)c1O (configuration not stated)	-6%[46.1 µM]	.	.	.	48%	-6%	?	0%
O=C(CSc1nc(-c2cccs2)cc(C(F)(F)F)n1)NCc1ccco1	-3%&-15%	-21%	-4.0%	0%	9%	.	-16%	.
CC(=O)N1CCSc2ccc(S(=O)(=O)Nc3cccc(C)c3)cc21	.	.	.	.	-14%	3%	-12%	-22%
Cc1nc(CSc2nnc(Nc3cccc(C)c3C)s2)cs1	-1%	17%	-3.8%	-4%	-3%	-7%	-33%	-9%
COc1cccc(/C=C/C(=C2/C(=O)N(c3ccccc3)N=C2C)c2ccc(C)cc2)c1OC	18%	10%	-2.2%	-30%	.	11%	-4%	?
Cc1ccc(Cn2cccc(C(=O)Nc3nc4ccc(C)cc4s3)c2=O)cc1	.	-13%[46.1 µM]	-0.6%	12%	.	.	.	-23%
COC(=O)CCN(C(=O)C1C2CC3CC(C2)CC1C3)c1ccccn1 (configuration not stated)	20%	18%	1.1%	-2%	-2%	2%	-7%	-4%
CCOC(=O)CSc1nc(-c2ccc(OC)cc2)cc(C(F)(F)F)c1C#N	8%[46.1 µM]	-11%[46.1 µM]	-3.0%	-3%	.	.	.	-1%
CC(C)c1ccc(NS(=O)(=O)c2ccc3[nH]c(=O)ccc3c2)cc1	.	-14%[46.1 µM]	-12%	-14%	.	.	.	19%
COCCNC(=O)C(=O)NNC(=O)COc1ccc(OC)cc1	.	.	.	.	5%	0%	4%	9%
CSc1ccccc1OCc1cc(C(=O)N2CCCC(C)C2)no1 (configuration not stated)	-8%	?	.	.	1%	7%	-24%	-6%
Cc1ccc(CNCc2cccn2-c2nnc(N3CCCC3)s2)cc1	.	?	-2.8%	-6%	.	.	.	-13%
O=C(CSc1nnc(-c2ccccc2O)o1)N1CCCCC1	?	?	.	.	-7%	-1%	4%	29%
CC(Oc1ccccc1F)C(=O)NNC(=O)CCNC(=O)c1ccccc1Cl (configuration not stated)	7%	2%	.	.	0%	-6%	-1%	-11%
Cc1cccc(-c2nc(CSCC(=O)N3CCN(c4ccccn4)CC3)c(C)o2)c1	?	?	-2.4%	-1%	-13%	0%	-25%	16µM*
Additional entries follow:
SMILES	Marburg entry inh	LASV entry inh	Cruzain inh Det	Cruzain inh noDet	RE007 growth inh	SARS PLpro yeast	NS1 inh	2A StopGo
Cc1ccccc1OCCn1ccnc1	.	.	.	.	1%	-2%	-7%	-11%
Cc1ccc(C)c(S(=O)(=O)Nc2ccc(S(=O)(=O)Nc3onc(C)c3C)cc2)c1	1%&1%	20%	-3.7%	1%	-1%	-10%	-12%	-5%
CC(=O)NC(CCC(=O)O)C(=O)O (configuration not stated)	.	.	8.7%	28%	5%[18.4 µM]	.	.	-12%&-6%
Cc1nn(-c2ccccc2)c2c1C(c1ccc(F)cc1)C(C#N)=C(N)O2 (configuration not stated)	19%	12%	-12%	-6%	-7%	-24%	7%	-5%
CCN1CCCC1CNCc1cccc(OC)c1OCc1ccc(F)cc1 (configuration not stated)	?	2%	-0.3%	-2%	2%	-2%	12%	-12%
O=C(Nc1cccnc1)c1cc(-c2cccnc2)nc2ccc(Br)cc12	?	-5%	-4.1%	?	-1%	-2%	-4%	-19%
Cc1c(NC(=O)CSCc2c(F)cccc2Cl)c(=O)n(-c2ccccc2)n1C	-3%[46.1 µM]	-2%[46.1 µM]	.	.	23%	1%	.	5%
O=C(Cn1cc(S(=O)(=O)Cc2ccccc2)c2ccccc21)Nc1ccccc1	?	17%	-8.1%	-16%	9%	5%	3%	4%
COc1cc(CC(=O)OCC(=O)N2C(C)CCCC2C)cc(OC)c1OC (configuration not stated)	.	.	.	.	9%	1%	-2%	-15%
Cc1cccn2c(=O)c(/C=C(\C#N)C(N)=O)c(N3CCN(Cc4ccc5c(c4)OCO5)CC3)nc12	-3%	-2%	2.4%	12%	-21%	9%	-1%	?
CCn1cc(C(=O)NCCN(C)C)c(=O)c2cc(F)c(N3CCN(C)CC3)cc21	11µM*	-17%	.	.	-19%	1%	-2%	1%
CCCCN(CC)C(=O)Cc1c(C(=O)O)[nH]c2ccc(Cl)cc12	16%	2%	4.8%	3%	-5%	-1%	14%	0%
O=S(=O)(Nc1cccc(-c2ccc(N3CCCCC3)nn2)c1)c1ccc(Cl)s1	.	?	-5.4%	?	.	.	.	-12%
O=C1CCCN1CC(CN1CCOCC1)Sc1nnnn1-c1ccccc1 (configuration not stated)	?	-1%[46.1 µM]	1.2%	2%	11%&14%	2%	-2%	-15%&-2%
CC(NC(=O)/C(C#N)=C/c1ccco1)c1ccccc1 (configuration not stated)	-20%[46.1 µM]	21%	.	.	6%	-3%	-5%	-6%
